VDR inhibitor – Inhibitors of the vitamin D receptor (VDR): qHTS; Vitamin D3 receptor (Homo sapiens), P11473; VDR-SRC2-3 peptide fluorescence polarization, 2 h; Potency, µM, for the others: max response, negative = inhibition, most hits filed as inhibitors; hit rate 0.93% among 400,000; AID 504847, 2011; active = well fitted inhibition curve with a large enough effect; inconclusive = small, poorly fitted or top-dose-only effect, or another doubt; inactive = no such curve, though single readings can be large or run the other way; also: series mostly up to about 120 µM
Target sequence (P11473 whole entry, looked up): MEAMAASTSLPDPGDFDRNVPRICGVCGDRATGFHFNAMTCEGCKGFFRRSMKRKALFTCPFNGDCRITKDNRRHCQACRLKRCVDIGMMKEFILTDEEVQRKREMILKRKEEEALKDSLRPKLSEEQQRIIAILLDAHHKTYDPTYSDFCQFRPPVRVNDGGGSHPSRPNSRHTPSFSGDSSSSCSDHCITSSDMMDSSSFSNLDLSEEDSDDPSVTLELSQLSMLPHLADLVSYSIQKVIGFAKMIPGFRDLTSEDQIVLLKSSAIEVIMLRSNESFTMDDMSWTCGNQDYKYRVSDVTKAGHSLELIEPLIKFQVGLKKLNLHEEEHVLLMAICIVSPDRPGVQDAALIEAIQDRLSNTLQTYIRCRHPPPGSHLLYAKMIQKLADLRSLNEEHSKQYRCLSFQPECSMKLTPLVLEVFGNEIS
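Inhibition of the VDR/SRC2-3 peptide interaction is quantified by fluorescence polarization. Compounds (23 nl, pintool) incubate with the reagents for 2 hours at ambient room temperature.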
Active calls of the source: *; ? = inconclusive; & = joins results of further samples; ! = not confirmed by another sample. % is scaled to controls: 0 for no effect and ±100 for the full control effect; potency is read from the fitted curve at half-maximal effect. An excerpt (hit frequency here may not be typical).

SMILES	VDR inhibitor
CC(OC(=O)CCCN=C1NS(=O)(=O)c2ccccc21)C(=O)NC1CCCCC1C (centres undefined)	-8%
COc1cc(C(=O)NCCN2C(=O)S/C(=C\c3ccc(F)cc3)C2=O)ccc1OCC(=O)N1CCOCC1	-26%
CCC(=O)Nc1nnc(C)s1	0%
C[C@H]1C(c2ccc(F)cc2)=NN(c2ccccc2)[C@@H]1CO	10%&2%
CCOc1cc(/C=N/n2cnnc2)ccc1OS(=O)(=O)c1ccccc1	-3%
CCN(CC)S(=O)(=O)c1ccc2c(c1)CC(C(=O)N1CCCC1)N2C(C)=O (centres undefined)	3%
Cc1ccc(S(=O)(=O)NCCOCCNS(=O)(=O)c2ccc(C)cc2)cc1	6%
O=C(NCCC(=O)N(Cc1ccco1)Cc1cccs1)c1ccc(Br)cc1	6%
O=C(O)c1ccc(NCc2nc3ccccc3n2CCOc2ccccc2Cl)cc1	2%&-7%
C=CCn1c(SCC(=O)NC2CCCC2)nnc1-c1ccccn1	-6%
CC(C)(C)CN1CCNC(=O)C1CC(=O)N1CCN(c2ccccc2)CC1 (centres undefined)	-5%
COCCN=c1scc(-c2cccs2)n1/N=C/c1ccc(O)c(O)c1O	-29%
COc1cc(OC)c(NC(=S)Nc2cc(Cl)cc(Cl)c2)cc1Cl	8%
Cc1ccc(CNC(=O)C2COc3ccccc3O2)cc1 (centres undefined)	-9%
Nc1nc(SCC(=O)c2cccs2)n[nH]1	-11%
Cc1ccc(Cl)c(OCC(=O)N(C)CC(=O)Nc2ccc(N3CCOCC3)cc2)c1	-27%
N#CC1(Nc2ccc(Br)cc2)CCCC1	5%
Cc1ccsc1/C=N/N1CCN(C2c3ccccc3-c3ccccc32)CC1	-4%
CC(C)C1Nc2ccc(S(=O)(=O)N3CCOCC3)cc2NC1=O (centres undefined)	20%
CC(=O)Oc1cc(C)cc2oc(=O)cc(-c3ccccc3)c12	-7%
Cc1ccc(SCCSc2ncccn2)cc1	10%
Cc1[nH]n2c(=O)c3c(nc2c1-c1cccc2ccccc12)CCC3	-16%
Cc1ccc(NC(=O)Cn2nnc(C(=O)NCc3cccs3)c2N)c(C)c1	-15%
N#Cc1nc(Cc2cccc3ccccc23)oc1NCc1ccc(F)cc1	7%
COc1ccc(Cc2nnc(NC(=O)c3ccc(F)cc3)s2)cc1OC	-8%

The closing 3 compounds of the section before come first, to join the parts.
SMILES	VDR inhibitor
Cc1ccc(NC(=O)Cn2nnc(C(=O)NCc3cccs3)c2N)c(C)c1	-15%
N#Cc1nc(Cc2cccc3ccccc23)oc1NCc1ccc(F)cc1	7%
COc1ccc(Cc2nnc(NC(=O)c3ccc(F)cc3)s2)cc1OC	-8%
Cc1cccc(Sc2ccc([N+](=O)[O-])cn2)c1	-5%
Cc1occc1-c1nnc(SCC(=O)N(C)C)o1	2%
CCOC(=O)C1(CCOc2ccccc2)CCN(Cc2ccncc2)CC1	10%
CC1=C(C(=O)Nc2cccnc2)C(c2ccccn2)n2nnnc2N1 (centres undefined)	9%
N#Cc1nc(-c2cccs2)oc1NCc1ccc2c(c1)OCO2	7%
CCOc1ccc(S(=O)(=O)N(C)c2ccc(OCC(=O)Nc3ccccc3F)cc2)cc1	3%
COc1ccccc1N1CCN(CC(=O)NCCc2ccc(S(N)(=O)=O)cc2)CC1	0%
COc1ccc(-c2csc(Nc3ncccn3)n2)cc1C	-4%
O=C(COC(=O)c1ccc(C(F)(F)F)cc1)NC(=O)C1CCCCC1	-7%
COc1ccc(C2CC(c3ccccc3)=NN2C(=O)COC(=O)c2cccc(N)c2)cc1 (centres undefined)	-4%
CCN(C(=O)Cn1c(=O)oc2ccccc21)C1CCS(=O)(=O)C1 (centres undefined)	-2%
COc1cc(C(CC(=O)Nc2ccc(Br)cn2)N2Cc3ccccc3C2=O)cc(OC)c1OC (centres undefined)	5%
Cc1cccnc1NC(=O)c1c(O)c2cccc3c2n(c1=O)CCC3	-3%
CN(C)CCCN(C(=O)c1cc(Cl)sc1Cl)c1nc2cc3c(cc2s1)OCO3	22%
O=C(O)c1ccc(NCCc2ccc(Cl)cc2)c([N+](=O)[O-])c1	-9%
COc1ccc(-c2ccc3c(c2)S(=O)(=O)c2cccc(C(=O)NC4CCCC4)c2C3=O)cc1OC	-13%
N/C(=N\OC(=O)c1cccc(Cl)c1)c1ccccn1	-3%
CC(C)N1CCN(Cc2cccn2-c2nccs2)CC1CCO (centres undefined)	-15%
CCn1c(=O)c(C(=O)NNS(=O)(=O)c2ccc(NC(=O)OC)cc2)c(O)c2ccccc21	0%
CCC(Sc1nc2cc3c(cc2c(=O)n1CCCC(=O)NCc1ccc2c(c1)OCO2)OCO3)C(=O)NCCCOC (centres undefined)	11%
O=C(CSc1nc(-c2ccco2)cc(C(F)(F)F)n1)N1CCN(c2ccc(Cl)cc2)CC1	4%
CSc1nnc(CCNS(=O)(=O)c2ccccc2Br)n1C	-2%
COc1ccc(Cl)cc1N1C(=O)CC(N2CCN(S(=O)(=O)c3ccccc3F)CC2)C1=O (centres undefined)	6%
Cc1cc(Cl)c(OCCOCCN2CCCC(C)C2)c(Br)c1 (centres undefined)	-7%
OC1C2(Cc3ccccc3)CN3CCN(C2)CC1(Cc1ccccc1)C3 (centres undefined)	-2%
The list continues:
SMILES	VDR inhibitor
Cc1noc(C)c1COc1ccccc1C(=O)NNC(=O)c1ccccc1	-16%
COc1ccc(-c2nnc(SCC(=O)c3ccc[nH]3)o2)cc1	24%
O=C(COC(=O)C1COc2ccccc2O1)Nc1cccc(S(=O)(=O)N2CCCCC2)c1 (centres undefined)	1%
CCC(=O)Nc1cccc(NC(=O)c2cccc([N+](=O)[O-])c2C)c1	-4%
CCc1cccc(NC(=O)CN(C)S(=O)(=O)c2cccs2)c1	10%
CN(C)CCOC1c2ccccc2CSc2ccccc21 (centres undefined)	14%
Cc1csc(NC(=O)CN2C(=O)C3CC=CCC3C2=O)n1 (centres undefined)	5%
CC(=O)Nc1ccc(S(=O)(=O)NCC2CCC(C(=O)NCc3ccccc3Cl)CC2)cc1 (centres undefined)	0%
COc1cc(OC)c(-n2cc(-c3ccc(OC)c(OC)c3)[nH]c2=S)cc1Cl	-7%
O=c1[nH]c2cc3c(cc2cc1CN(Cc1nnnn1C1CCCC1)C1CCCC1)OCCO3	9%
COc1ccc(S(=O)(=O)N2CCCCCC2)cc1C(=O)NCCc1ccccc1	0%
Cc1oc2ccc(OCc3cccc(Cl)c3)cc2c1C(=O)O	-4%
CCOC(=O)CNS(=O)(=O)Cc1ccccc1	-16%
COC(=O)Cn1c(=NC(=O)c2cccc(OC)c2)sc2cc(OC)ccc21	?
COc1ccccc1NC(=O)CN1CCCCCC1	-11%
COc1ccc(C[C@H]2CN3C(=NC[C@@H]3Cc3ccccc3)N2CCNC(=O)CCC2CCCCC2)cc1	3%
COc1ccc(C)cc1NC(=O)CN1CCN(CC(=O)Nc2ccccc2F)CC1	6%&9%
CCN(CC)CCCNC(=O)C1CCCN(c2nnc(N3CCCC3=O)s2)C1 (centres undefined)	-7%
COc1ccc(-c2sc3ccc(-c4ccc5c(c4)OCO5)cc3c2-c2ccc(OC)nc2)cc1	-6%
COC(=O)Cn1c2[n+](c3ccccc31)CC(O)CS2 (centres undefined)	11%
CCCN1C(=O)CN(C2CCCCC2)C(=O)C1c1ccc(OC)c(OC)c1 (centres undefined)	2%
O=C1C=C(c2ccc(C(=O)O)c(Cl)c2)C[C@@H](c2ccc3c(c2)OCO3)C1	-6%
O=[N+]([O-])c1ccc(O)c(C(C#Cc2ccccc2)N2CCOCC2)c1 (centres undefined)	-5%
COc1ccc(CCNC(=O)c2cc(C)nc3c2c(C)nn3-c2ccccc2)cc1OC	1%
CCCn1nnc(NC(=O)/C=C/c2ccccc2)n1	0%

Sorted by the number under VDR inhibitor (rising): some entries from above
SMILES	VDR inhibitor
Cc1oc2ccc(OCc3cccc(Cl)c3)cc2c1C(=O)O	-4%
CC(=O)Nc1ccc(S(=O)(=O)NCC2CCC(C(=O)NCc3ccccc3Cl)CC2)cc1 (centres undefined)	0%
COc1ccc(C[C@H]2CN3C(=NC[C@@H]3Cc3ccccc3)N2CCNC(=O)CCC2CCCCC2)cc1	3%

More entries
SMILES	VDR inhibitor
Cc1cc(C)c(NC(=O)C(=O)NCc2ccco2)c(C)c1	17%
Nc1nc(SCC(=O)Nc2cccc([N+](=O)[O-])c2)n[nH]1	-14%
O=C(CCc1nnc(-c2ccc3c(c2)OCO3)o1)NC(c1cccnc1)C(F)(F)F (centres undefined)	-17%
COc1ccccc1NC(=O)CCCC(=O)OCC(=O)c1ccc(F)cc1	-5%
CCc1ccccc1NS(=O)(=O)c1ccc(OC)c2ncccc12	0%&5%
O=C(Cc1ccc(Cl)cc1)Nc1ccc(S(=O)(=O)N2CCOCC2)cc1	-21%
COC(=O)[C@]1(C)CCC[C@@]2(C)C3CC[C@@]4(C)C[C@]3(CCC21)CC4=NO (some centres undefined)	-4%
O=[N+]([O-])c1ccc(CNc2ccc(Cl)cc2)s1	-8%
COC(=O)COc1ccc2cccc(-n3cnnn3)c2c1	-7%
COc1ccc(CN2CCc3c([nH]c4ccccc34)C2)cc1Br	1%
CN(Cc1ccco1)c1cc(-c2ccc3c(c2)OCO3)ncn1	22µM*
COC(=O)c1ccc(NC(=O)Nc2ccc(OC)cc2)cc1	-1%
Brc1ccc2[nH]c3c(N4CCc5ccccc5C4)ncnc3c2c1	16%
O=C(Nc1ccc2ncccc2c1)c1ccccc1Cl	0%
O=C(NCCOc1ccccc1F)C1CCC(=O)N(CC2CCCCC2)C1 (centres undefined)	-20%
Cc1nc(C#N)c(NCc2ccc3c(c2)OCO3)o1	0%
CCN1C(=O)CC(Sc2ccccc2C(=O)O)C1=O (centres undefined)	-5%
Cc1ccc(S(=O)(=O)N2CCN(C(=O)COC(=O)COc3ccccc3C(C)C)CC2)c(C)c1	-5%
N[C@@H](Cc1ccc(O)cc1)c1nnc([C@H](CO)NC(=O)C2CCNCC2)o1	3%
Cc1cc(C(=O)N/N=C/c2ccc[nH]2)no1	-10%
CCC(Oc1ccccc1)C(=O)Nc1cccc(OCc2cc(=O)n3cccc(C)c3n2)c1 (centres undefined)	9%
Cc1csc2ncnc(NC3CCN(Cc4ccccc4)CC3)c12	3%
COc1cccc(OC)c1C1=NC(C)(C)CO1	4%
CCOC(=O)C1=C(CSc2nccn2C)NC(=O)NC1c1ccc(OC)cc1 (centres undefined)	8%
COc1ccccc1-c1cc(C(=O)N/N=C/c2sccc2C)c2ccccc2n1	-2%

An excerpt from above in order of heavy-atom count, descending.
SMILES	VDR inhibitor
N[C@@H](Cc1ccc(O)cc1)c1nnc([C@H](CO)NC(=O)C2CCNCC2)o1	3%
Nc1nc(SCC(=O)Nc2cccc([N+](=O)[O-])c2)n[nH]1	-14%
O=[N+]([O-])c1ccc(CNc2ccc(Cl)cc2)s1	-8%

Further records:
SMILES	VDR inhibitor
CCCc1c(C(=O)N/N=C(\C)c2ccc(O)cc2)nnn1-c1nonc1N	12%
O=C(COc1ccccc1)OCC(=O)c1c[nH]c2ccccc12	-2%
O=C(Nc1cccnc1)c1cc([N+](=O)[O-])ccc1Cl	5%
CCC1(C)Cc2ccccc2-c2nc(NCCO)n(-c3ccccc3)c(=O)c21 (centres undefined)	11%
CC(=O)c1cccc(NS(=O)(=O)c2cc(-c3onc(C)c3C)ccc2C)c1	5%
Cc1sc2nc(-c3cccnc3)nc(Cl)c2c1-c1ccccc1	-19%
CC(Oc1ccc2c(c1)oc(=O)c1ccccc12)C(=O)NCCN1CCOCC1 (centres undefined)	-6%
COc1ccc2nc(NC(=O)CSc3nnc4n3C(C)(C)Cc3ccccc3-4)sc2c1	-8%
Cc1ccc(-n2c3c(cc(-c4nc(-c5ccc(Cl)cc5)cs4)c2=O)C(=O)CC(C)(C)C3)cc1	-9%
CCCN(CCC)C(=O)c1cc2c(=O)[nH]c3ccc(C)cc3c2s1	-25%
O=C(CN1CCN(C(c2ccccc2)c2ccccc2)CC1)Nc1ccc(N2CCOCC2)cc1	-5%
CC1=CC(=O)c2ccccc2C1=O	3.5µM*!
COc1ccc(C2Nc3ccccc3C(=O)N2c2ccccc2)cc1CSc1ccccn1 (centres undefined)	-15%
COc1cccc(NC(=S)N(Cc2ccco2)C(C)c2ccco2)c1 (centres undefined)	-5%
Cc1oc(-c2cccc(Cl)c2)nc1Cn1c(SCc2ccc(F)cc2)nc2cccnc21	12%
COc1ccc(C)cc1NC(=O)c1cn(C)c(=O)c2cc(OC)c(OC)cc12	5%
CC(Sc1nnc(C2CC2)n1-c1ccccc1)C(=O)N1CCNC1=O (centres undefined)	25%
CCC(C)NC(=O)Cn1cnc2sc(C)c(S(=O)(=O)N3CCN(c4ncccn4)CC3)c2c1=O (centres undefined)	-12%
CCOC(=O)c1sc2nc(CC(=O)OC)nc(NCCN(CC)CC)c2c1C	-3%
O=C(COC(=O)[C@@H]1CCCN1S(=O)(=O)c1ccc(Cl)cc1)NC1CC1	-3%
CC(=O)c1ccc(S(=O)(=O)N2CCN(C(C)C(=O)N(C)Cc3ccccc3)CC2)cc1 (centres undefined)	-1%
COCc1ccc(CN2CCCC(CCC(=O)NCc3ccc(C)o3)C2)o1 (centres undefined)	0%
Clc1ccc(OCc2nn3c(-c4ccco4)nnc3s2)c(Cl)c1	-4%
COc1ccc2ccccc2c1/C=N/N1C(=O)CSC1=S	11%
O=C(CC(c1cccs1)N1Cc2ccccc2C1=O)Nc1ccc(F)cc1 (centres undefined)	5%

As entered above:
Value for `COc1ccc(C2Nc3ccccc3C(=O)N2c2ccccc2)cc1CSc1ccccn1` (centres undefined) in VDR inhibitor: -15%
Value for `CC(Oc1ccc2c(c1)oc(=O)c1ccccc12)C(=O)NCCN1CCOCC1` (centres undefined) in VDR inhibitor: -6%
Value for `CCCc1c(C(=O)N/N=C(\C)c2ccc(O)cc2)nnn1-c1nonc1N` in VDR inhibitor: 12%
Value for `Cc1sc2nc(-c3cccnc3)nc(Cl)c2c1-c1ccccc1` in VDR inhibitor: -19%
Value for `O=C(COC(=O)[C@@H]1CCCN1S(=O)(=O)c1ccc(Cl)cc1)NC1CC1` in VDR inhibitor: -3%
Value for `O=C(Nc1cccnc1)c1cc([N+](=O)[O-])ccc1Cl` in VDR inhibitor: 5%
